# PK Bst: modulators of Bacillus stearothermophilus pyruvate kinase | partly purified Bacillus stearothermophilus pyruvate kinase, luminescence ATP production; ribose 5-phosphate activator present at AC10 | Potency, µM | 51,000 tested, 1.2% active | AID 361; in the data active means potency below about 11 µM; inconclusive means mostly about 12 µM to 25 µM; inactive means weaker than that;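 the screen sought inhibitors and activators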;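 note: potency is the fitted concentration of half-maximal effect; scaled between full activation by ribose 5 phosphate and full inhibition by luteolin; about four in five hits inhibit and the cells do not say which; series up to 57 µM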
# YjeE inh: displaces an ADP probe from E. coli YjeE (TsaE); purified YjeE, fluorescence polarisation of a bound ADP probe; 71,000 tested, 0.05% active; AID 605; Potency, µM; active = well fitted falling curve; inconclusive = weaker or top-dose-only fall, or a rising curve; inactive = flat or poorly fitted curve;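 note: top concentration of the series not given in the record; excess ADP was the control for the full effect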
#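 Fluorescence polarization of a BODIPY Texas Red–ADP probe (2 uM) bound to purified YjeE (10 uM) was read after 15 min room-temperature incubation with compounds. Loss of polarization marks inhibitors; ADP serves as titrated control.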
# * = called active by the depositor; i = inactive; ? = inconclusive; / = no result given.
# Below each compound – PK Bst, YjeE inh
1) O=C(CSc1nnc(COc2ccc(Cl)cc2)n1Cc1ccco1)c1ccccc1F
    >57, i
2) CCCCSc1nc2c(c(=O)[nH]c(=O)n2C)n1CCc1ccccc1
    /, i
3) O=Cc1cccc(Br)c1
    /, i
4) CCc1ccc(CC)c(S(=O)(=O)Nc2ccc(C(=O)O)c(O)c2)c1
    >57, i
5) CCOC(=O)C1CCN(C(=O)c2ccc(Br)o2)CC1
    >57, i
6) Cc1nc2ccccc2nc1OCC(=O)NCc1ccc2c(c1)OCO2
    >57, i
7) C=CCn1c(CCC(=O)O)ccc1-c1ccccc1
    >57, i
8) CCn1c(=O)cc(OCC(=O)N2CCN(C(=O)c3ccco3)CC2)c2ccccc21
    >57, i
9) CC(=O)c1ccccc1[N+](=O)[O-]
    /, i
10) O=C(CSc1nnc2ccccn12)Nc1ccccc1C(=O)NC1CC1
    >57, i
11) CC(C)c1ccc2oc(-c3cc(N)ccc3O)nc2c1
    /, i
12) CN(C)S(=O)(=O)c1ccc2nc(NC(=O)c3cccnc3)sc2c1
    i, i
13) CCn1nnc(NC(=O)COc2cc(C)ccc2C(C)C)n1
    >57, i
14) N#CCCn1c(=O)cnc2cnc(Oc3ccccc3)nc21
    /, i
15) COc1ccc(-n2c(=O)c(C)nc3cncnc32)cc1
    /, i
16) CC(=O)Nc1cccc(NC(=O)C2CC(=O)N(c3ccc(C)cc3)C2)c1 (centres undefined)
    >57, i
17) COc1cc(OC)cc(C(=O)N2CCN(Cc3cccc(F)c3)CC2)c1
    >57, i
18) CCN(CC)S(=O)(=O)c1cccc(C(=O)N2CC(O)CC2C(=O)O)c1 (centres undefined)
    >57, i
19) CN1CCCC(OC(=O)c2cc(Cl)ccc2Cl)C1 (centres undefined)
    >57, i
20) COc1ccc(NC(=O)C2CCCN(C(=O)NC3CCCCC3)C2)cc1OC (centres undefined)
    >57, i
21) Cc1ccc2cccc(S(=O)(=O)NC3CCS(=O)(=O)C3)c2n1 (centres undefined)
    /, i
22) COc1ccc(C(=S)N2CCCC2)cc1C
    /, i
23) Cn1c(CNc2nc(-c3ccccc3)cs2)nnc1SCC(=O)c1ccccc1
    >57, i
24) CC1CCCC(C)N1C(=O)CSc1nnc(NC(=O)c2cccs2)s1 (centres undefined)
    >57, i
25) Cc1ccc(C2CC(c3cccc(Br)c3)Nc3nnnn32)cc1 (centres undefined)
    >57, i
26) COc1ccccc1N1CCN(S(=O)(=O)c2ccc(F)cc2)CC1
    /, i
27) COc1ccc(C(c2nnnn2Cc2cccs2)N2CCC(C(N)=O)CC2)c(OC)c1 (centres undefined)
    >57, i
28) CC(=O)Oc1ccc(C(=O)Nc2nnc(C)s2)cc1
    /, i
29) CCc1ccc2[nH]c(=O)c(CN(Cc3ccccc3)Cc3nnnn3Cc3ccco3)cc2c1
    >57, i
30) COc1ccc(C(=O)Nc2cccc(C)c2)cc1
    /, i

# Further entries follow.
# Below each compound – PK Bst, YjeE inh
31) CCOc1cc(-c2nc(-c3ccc(C)nc3OC)no2)cc(OCC)c1OCC
    >57, i
32) Oc1oc(-c2ccco2)nc1C=Nc1ccccc1
    i, i
33) CC(C)C[C@@H](CC(=O)N[C@@H](CCC(=O)O)CC(=O)O)NC(=O)[C@@H]1CCCC[C@H]1NC(=O)C[C@H](CCCN)NC(=O)C[C@H](CO)NC(=O)[C@@H]1CCCC[C@H]1N
    /, i
34) COc1ccc(S(=O)(=O)N2CCCC(C(=O)O)C2)cc1Cl (centres undefined)
    >57, i
35) CS(=O)(=O)Nc1ccccc1C(=O)NCc1ccco1
    >57, i
36) CCOc1ccc2cc(S(=O)(=O)n3ccnc3C)ccc2c1
    /, i
37) COc1ccc(OC)c(NC(=O)C2C3C=CC(C3)C2C(=O)NCc2ccccn2)c1 (centres undefined)
    >57, i
38) Cn1c(CN2CCOCC2)nnc1SCC(=O)NCCc1ccccc1
    >57, i
39) CC(C)(C)NC(=O)NC(=O)COC(=O)COc1ccc2c(c1)CCC2
    >57, i
40) Cc1cc(C)n(-c2nc(NCC(C)O)c3c4c(sc3n2)CCCC4)n1 (centres undefined)
    i, i
41) CCOC(=O)C1=C(C)NC(=O)NC1c1ccc(Cl)cc1Cl (centres undefined)
    >57, i
42) COCCN(CCOC)Cc1c(C)[nH]c2ccccc2c1=O
    /, i
43) Cc1csc(NC(=O)CSc2nnc(-c3ccoc3C)o2)n1
    >57, i
44) O=C(O)CN(CC(=O)O)c1ccccc1
    /, i
45) O=C(CN1CCOc2ccccc21)N1CCN(c2cccc(Cl)c2)CC1
    /, i
46) O=C(NCc1ccc(F)cc1)C1CCCN(C(=O)Nc2ccccc2)C1 (centres undefined)
    >57, i
47) CC(=O)Nc1cc(-c2nn3c(C)nnc3s2)ccc1C
    /, i
48) CCCCCCNC(=O)Cc1c(O)c2ccccc2[nH]c1=O
    >57, i
49) CCC1CCCCN1CC(=O)Nc1cc(C)nn1-c1nc(C)cc(C)n1 (centres undefined)
    >57, i
50) COC(=O)[C@@]1(Cc2ccc(OC)cc2)[C@H]2c3cc(C(=O)N4CCCC4)n(Cc4c(CO)[nH]cc(C)c4=O)c3C[C@H]2CN1C(=O)c1ccccc1
    /, i
51) CS(=O)(=O)c1sc2nc(-c3cccs3)cc(-c3ccccc3)c2c1N
    >57, i
52) O=C(NCc1cccnc1)c1ccc(S(=O)(=O)N2CCOCC2)cc1
    >57, i
53) CCC(C)NC(=O)CC1Oc2ccc(Cl)cc2NC1=O (centres undefined)
    /, i
54) CC(C)(C)c1csc(N(CCC#N)CCC#N)n1
    >57, i
55) COC(=O)c1cccc(NC(=O)C2COc3ccccc3O2)c1 (centres undefined)
    /, i
56) COc1ccc(-n2c(Cc3cccn3C)nnc2SCC(=O)Nc2cccc(NC(C)=O)c2)cc1
    >57, i
57) Cc1ccc(S(=O)(=O)Cn2nnnc2C(C(C)C)N2CCSCC2)cc1 (centres undefined)
    >57, i
58) Cc1cc(Br)ccc1OCC(=O)N(Cc1nc(-c2ccccc2)no1)C(C)C
    >57, i
59) Cc1ccc(CCP(=O)(O)CN2CCOCC2)cn1
    /, i
60) COc1ccc(C(=O)N(c2ccccc2)C2C=CS(=O)(=O)C2)cc1 (centres undefined)
    >57, i

# (list continues)
# Below each compound – PK Bst, YjeE inh
61) CC1(C)OC(=O)N(CCc2ccccc2)C1(C)O (centres undefined)
    >57, i
62) Cn1c(=O)c(C(=O)NCCO)c(O)c2ccccc21
    /, i
63) N=c1c2c3c(sc2ncn1CCN1CCOCC1)CCCC3
    >57, i
64) COC(=O)C1(C(F)(F)F)N=C2Sc3ccccc3N2C(N2CCOCC2)=N1 (centres undefined)
    /, i
65) CCOc1ccc2nc(SCC(=O)Nc3ncccn3)[nH]c2c1
    >26, /
66) COc1ccc(C(=O)N2CCN(Cc3cc(OC)c(O)c(OC)c3)CC2)cc1OC
    >57, i
67) O=C(c1cccc(S(=O)(=O)N2CCCC2)c1)c1cccc(S(=O)(=O)N2CCCC2)c1
    /, i
68) Cc1cc(N2CCN(c3nc(N4CCOCC4)nc4ccccc34)CC2)c2ccccc2n1
    >57, i
69) Cn1c(=O)c2c(nc(CN3CCN(Cc4ccccc4)CC3)n2Cc2ccccc2)n(C)c1=O
    /, i
70) O=C(NCCN1CCOCC1)C1CCC(=O)N1C1CCCCC1 (centres undefined)
    >57, i
71) CCC(C)c1ccc(O)c(NC(=O)c2cncc(Br)c2)c1 (centres undefined)
    >57, i
72) COC(=O)c1ccc(CN(C)S(=O)(=O)c2ccc(C)cc2)o1
    >57, i
73) COc1ccccc1N1CCN(C(CNC(=O)C2CCCCC2)c2cccnc2)CC1 (centres undefined)
    /, i
74) Cn1c(=O)c(-c2ccc(Cl)cc2)nc2cnc(OCc3ccccc3)nc21
    /, i
75) CC(C)NC(=O)N1CC2(CCN(C(=O)c3ccco3)CC2)C1
    /, i
76) COc1ccc(N2CCN(CC(O)c3c[nH]c4ccc(OC)cc34)CC2C)cc1 (centres undefined)
    >57, i
77) Cc1ccc(-c2noc(CCC(=O)Nc3ccccc3N3CCN(C)CC3)n2)cc1
    >57, i
78) Cc1ccc(-c2cc(-c3ccccc3)c(C#N)c(N)n2)o1
    >57, i
79) O=C(Cn1cnc2c(nnn2Cc2ccc(Cl)cc2)c1=O)N1CCCc2ccccc21
    >57, i
80) Cc1cc(C)nc(SCC(=O)c2ccc(O)cc2O)n1
    /, i
81) Cc1noc(C)c1C(=O)N1CCC[C@@]2(CCN(c3ccccn3)C2)C1
    /, i
82) O=C(Oc1ccc2ccc(=O)oc2c1)N1CCOCC1
    /, i
83) NC(=O)c1oc2ccccc2c1NC(=O)c1ccc(F)cc1
    /, i
84) COc1cccc(-c2noc(C3CCCN(S(=O)(=O)c4cccc(Cl)c4C)C3)n2)c1 (centres undefined)
    >57, i
85) CN(C)CCSc1nnc2sc3ccccc3n12
    /, i
86) CCc1ccc(C(=O)CSC2=C(C#N)C(c3ccco3)C(C(C)=O)=C(C)N2)cc1 (centres undefined)
    /, i
87) O=C(NCc1n[nH]c(=S)n1-c1cccc(Cl)c1)c1ccc(S(=O)(=O)N2CCCC2)cc1
    >57, i
88) O=C(Nc1nc(-c2ccc(S(=O)(=O)N3CCCC3)cc2)cs1)c1ccco1
    >57, i
89) O=c1[nH]cc(COCc2ccccc2)c(=O)[nH]1
    >57, i
90) N#CCSC1=Nc2ccccc2C2=NC(CCC(=O)N3CCN(c4ccccc4)CC3)C(=O)N12 (centres undefined)
    >57, i

# 3 of the compounds above, with each value named.
73. COc1ccccc1N1CCN(C(CNC(=O)C2CCCCC2)c2cccnc2)CC1 (centres undefined)
- PK Bst = /
- YjeE inh = i
74. Cn1c(=O)c(-c2ccc(Cl)cc2)nc2cnc(OCc3ccccc3)nc21
- PK Bst = /
- YjeE inh = i
75. CC(C)NC(=O)N1CC2(CCN(C(=O)c3ccco3)CC2)C1
- PK Bst = /
- YjeE inh = i

# Carrying on.
# Below each compound – PK Bst, YjeE inh
91) CCOC(=O)C1C(=O)CC(C)(O)C(C(=O)OCC)C1c1cc(Br)ccc1OC (centres undefined)
    >57, i
92) COCC(=O)N(c1ccc(C(C)C)cc1)C1C=CS(=O)(=O)C1 (centres undefined)
    >57, i
93) Cc1cc(C(C)(C)C)c(OCCCN2CCOCC2)c(C(C)(C)C)c1
    /, i
94) C=CCNC(=O)c1ccncc1
    >57, i
95) CCCCNC(=O)c1ccc(N2CCOCC2)c(NS(=O)(=O)c2ccc(OC)cc2)c1
    >57, i
96) COc1ccccc1-n1c(SCC(=O)Nc2ccc(F)cc2)nc2c(c1=O)SCC2
    /, i
97) CCOc1ccccc1-c1nc(-c2cc3ccc(C)cc3[nH]c2=O)no1
    >57, i
98) COc1ccc(S(=O)(=O)N[C@@H](Cc2ccccc2)C(=O)N2CC[C@@]3(O)CCCC[C@H]3C2)cc1
    >57, i
99) Cc1nc(=O)c(-c2ccccc2)c(C)n1-c1ccccc1C(=O)O
    >57, i
100) CC(=O)N(C)C1(c2nnnn2CCOC(=O)Nc2cccc3ccccc23)CCCC1
    >57, i
101) CC1(C)NC(=O)N(CC(O)COc2ccccc2C(=O)Nc2ccccc2)C1=O (centres undefined)
    >26, /
102) COc1ccc(C(=O)NCCc2nnc(SCc3nc4ccccc4c(=O)[nH]3)n2C)cc1
    >57, i
103) Cc1cc(C(=O)CSc2nnc(N)s2)c(C)n1CCc1ccc(Cl)cc1
    >57, i
104) COc1ccc(NC(=O)CN2CCC(C)CC2)cc1
    >57, i
105) COc1ccc(S(=O)(=O)n2nc(OC(=O)c3ccc(C)cc3)cc2N)cc1
    >57, i
106) Cc1ccc(CCC(=O)Nc2nccs2)o1
    /, i
107) CCOC(=O)CSc1nc2cc(C(=O)N3CCC(C(N)=O)CC3)ccc2c(=O)n1-c1ccccc1
    >57, i
108) Cc1nc2ccc(Br)cn2c1NC(C)(C)C
    >57, i
109) O=C(O)CCn1c(=O)sc2ccccc21
    >57, i
110) COc1ccccc1N1C(=O)CC(N2CCc3ccccc32)C1=O (centres undefined)
    >57, i
111) Cc1cc(C)c(S(=O)(=O)Nc2ccc(O)cc2)cc1C
    ?, i
112) Nc1ccccc1SCC(=O)N1CCc2ccccc21
    >57, i
113) CCOC(=O)[C@H]1CCC[C@@H](NS(=O)(=O)c2ccc(NC(C)=O)cc2)C1
    >57, i
114) Cc1cccc(CS(=O)(=O)Cc2ccc(C(=O)NCCN3CCCCC3C)o2)c1 (centres undefined)
    >57, i
115) C[C@@H](C(=O)NCc1nc2ccccc2[nH]1)[C@@H]1C[C@@]1(C)[C@@H](NC(=O)OCc1ccccc1)c1ccccc1
    /, i
116) O=C(c1ccco1)N1CCN(c2cc(C(F)(F)F)nc3ncnn23)CC1
    >57, i
117) CCCc1nnc(NC(=O)CCCC(=O)O)s1
    >57, i
118) Cc1ccc(-c2c3c(=O)n(C)c(=O)n(C)c3cn2Cc2ccccn2)cc1
    >57, i
119) Cc1cccc(N(CC(N)=O)S(C)(=O)=O)c1C
    >57, i
120) C=CCNC(=O)c1cc(-c2ccccc2O)on1
    /, i

# Record cards, from the list above:
# `Cc1cc(C(C)(C)C)c(OCCCN2CCOCC2)c(C(C)(C)C)c1` is listed with PK Bst = /; YjeE inh = i
# `CCOC(=O)[C@H]1CCC[C@@H](NS(=O)(=O)c2ccc(NC(C)=O)cc2)C1` is listed with PK Bst = >57; YjeE inh = i
# `COc1ccccc1N1C(=O)CC(N2CCc3ccccc32)C1=O` (centres undefined) is listed with PK Bst = >57; YjeE inh = i

# Next section
# Below each compound – PK Bst, YjeE inh
121) c1cc(CNc2ccc3c(c2)OCCO3)ccn1
    >57, i
122) Cc1ccc(-c2nn3c(C)nnc3s2)cc1NC(=O)c1ccco1
    /, i
123) CCc1n[nH]c(=O)n1Cn1c(CC)n[nH]c1=O
    >57, i
124) Nc1cccc2c1C(=O)N(C(=O)c1ccc(S(=O)(=O)N3CCCCCC3)cc1)C2=O
    >57, i

# Screening data as filed in PubChem.

# An excerpt; the hit share may differ from the screen's.
